# Bioassay records from PubChem.
# Calb FLC = C. albicans growth inhibition with fluconazole, primary screen, CaCi-2 strain, Alamar Blue fluorescence. growth inhibition, % (concentration not given with the values). actives 0.57% (n = 300,000). C. albicans CaCi-2 (fluconazole-resistant clinical isolate) + fluconazole, 48 h. AID 1979, 2009;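 active means most replicates above 75%; inconclusive means exactly half above 75%; inactive means most below 75%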;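 further: all wells also contain fluconazole at 8 µg/ml as a sub-toxic cotreatment; 0% = median of DMSO wells and 100% = median of geldanamycin control wells; wells of about 8 µL received 7.5 nL stock; the first replicate is given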
# RanGTP-Imp inh = inhibitors of RanGTP-importin-beta interaction, primary screen, biochemical, FRET, CFP-Ran, YFP-importin-beta, homogeneous; cell-free CFP-Ran/YFP-importin-beta FRET ratio; inhibition, % (test concentration not listed); actives 1.1% (n = 300,000); AID 2216, 2009;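 active means most replicates above 15%; inconclusive means exactly half above 15%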;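 further: 0% = DMSO wells and 100% = Ran loaded with GDP instead of GTP; wells of about 40 µL received 100 nL stock; the first replicate is given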
# Ecoli rRNA inh = reduced GFP signal of wild-type E. coli, primary screen, bacterial rRNA inhibitor project, GFP/RFP fluorescence, OD600, single point | AID 720706, 2013 | GFP signal change (wild-type ribosome), % (no concentration beside the values) | E. coli WT GFP vs humanized-ribosome RFP mutants, 24 h; stronger effect = lower value; DMSO median 0, no signal -100 | actives 1.6% (n = 350,000);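 active means significant combined selectivity score with lowered wild-type GFP, culture density cut under 30%, mutant RFP and density less affected; inactive means any of these conditions unmet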; further: one replicate is shown; some compounds called inactive have numbers as strong as hits
# Bfl-1 A1 inh = caspase 3/7 activation in MEF A1-2A-BIM cells, primary screen, A1 inhibitor project, cell-based, luminescence, HTS. caspase activation, % (no concentration beside the values). AID 2462, 2010. actives 0.066% (n = 330,000). Caspase-Glo 3/7 luminescence, 3 h; percent of clofoctol response, vehicle zero;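 active means over half of replicate activation scores above 10%, or exactly half above 10 with the replicate mean above 10; inconclusive means replicate mean below 10 yet half the replicates above 10; inactive means over half of replicates below 10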;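 further: wells of about 30 µL received 50 nL stock; many hits fall short of the cut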
# Beta apoptosis = inhibitors of cytokine-induced beta cell apoptosis, primary screen, luminescence. actives 0.8% (n = 300,000). INS-1E cytokine-induced death, ATP luminescence, 48 h; percent of positive-control rescue, neutral wells zero. protection from apoptosis, % (test concentration not listed);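 active means all replicates at 75% or more, or half of them and the mean; inconclusive means half reach 75% but not the mean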;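 further: 0% = cytokine-treated negative control wells and 100% = positive control rescue; higher means more ATP so stronger rescue from cytokine killing; wells of about 40 µL received 100 nL stock; the first replicate is given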
# Vif A3G = inhibitors of Vif binding to APOBEC3G peptide, primary screen, biochemical, TR-FRET, GST-Vif 1-94, biotin-A3G peptide, dose response retest (AID 1117319). TR-FRET GST-Vif / biotin-A3G peptide binding; higher % means a stronger effect; test concentration not given here; strong numbers were not always called active. inhibition, %, or IC50 in µM where a hit was titrated. actives 0.57% (n = 260,000);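 active means above the screen mean plus three standard deviations and confirmed in dose response; inconclusive means results disagree or hit not tested in dose response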;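 further: Vif residues 1-94 fused to GST binding biotinylated APOBEC3G peptide 110-148; 0% = full assay without inhibitor and 100% = GST in place of GST-Vif; retest series ran down from 100 µM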
# T cruzi inh = inhibitors of intracellular T. cruzi growth, primary screen, luminescence, NIH3T3 host cells | T. cruzi beta-gal in NIH3T3, 90 h | inhibition, % (test concentration not listed) | actives 1.4% (n = 300,000) | AID 1885, 2009;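 active means mean inhibition across valid replicates above about 55%, limit read from the data; inconclusive means mean below that limit but half or more replicates reach it; inactive means mean below it, under half of replicates reach it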;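 further: signal also drops with host cell toxicity which is not excluded here; 0% = plate median of DMSO wells and 100% = zero luminescence signal; higher percent means less beta-gal luminescence so fewer parasites; stock transfer was 50 nL into about 50 µL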
# MLL AF4-AF9 inh = inhibitors of AF4 peptide binding to AF9, primary screen, biochemical, AlphaScreen, biotin-AF4 peptide, FLAG-AF9, single point. inhibition, % at 10 µM. actives 0.47% (n = 350,000). AID 651704, 2012;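 active means every replicate reaching a set inhibition limit, whatever the replicate mean, cut at about 25% in these data; inconclusive means mean inhibition reaches that limit but some replicates miss it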;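 further: 0% = plate neutral control median and 100% = total signal loss; the record names both 10 and 1 µM as test concentration; the first replicate is given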
# Target sequence (P42568 whole entry, looked up): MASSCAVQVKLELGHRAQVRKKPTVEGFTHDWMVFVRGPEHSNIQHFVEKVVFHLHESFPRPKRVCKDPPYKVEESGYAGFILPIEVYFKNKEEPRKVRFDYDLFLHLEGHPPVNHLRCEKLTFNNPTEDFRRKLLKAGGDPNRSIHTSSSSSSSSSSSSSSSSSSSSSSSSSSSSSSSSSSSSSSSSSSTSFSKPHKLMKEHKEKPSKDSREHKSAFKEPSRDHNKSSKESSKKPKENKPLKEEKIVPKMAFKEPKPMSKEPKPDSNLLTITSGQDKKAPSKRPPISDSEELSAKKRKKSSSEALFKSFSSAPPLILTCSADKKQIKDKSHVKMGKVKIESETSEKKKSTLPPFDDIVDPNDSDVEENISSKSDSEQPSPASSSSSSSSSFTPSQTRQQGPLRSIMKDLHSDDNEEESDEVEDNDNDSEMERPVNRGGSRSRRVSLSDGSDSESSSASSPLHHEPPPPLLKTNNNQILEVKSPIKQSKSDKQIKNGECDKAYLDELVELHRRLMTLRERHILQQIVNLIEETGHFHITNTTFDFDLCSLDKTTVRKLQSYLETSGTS
# Ecoli rRNA inh OD600 = further read-out of Ecoli rRNA inh, marked with its call; OD600 change, %; measured here: OD600 growth;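 optical density of the mix in the first replicate; 0 = DMSO median and -100 = no signal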
# Ecoli rRNA inh RFP = further read-out of Ecoli rRNA inh, marked with its call; RFP signal change, %; measured here: RFP humanized mutant strains;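 first replicate; 0 = DMSO median and -100 = no signal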
# * = called active by the depositor; i = inactive; u = inconclusive; x = no result given.
SMILES,Calb FLC,RanGTP-Imp inh,Ecoli rRNA inh,Ecoli rRNA inh OD600,Ecoli rRNA inh RFP,Bfl-1 A1 inh,Beta apoptosis,Vif A3G,T cruzi inh,MLL AF4-AF9 inh
Cc1cccc(C)c1NC(=O)Nc1ccc(S(N)(=O)=O)cc1,-2,u,3,10,-0.9,2.9,-8,-1%,-3,-3.1
COc1ccc(N(CC(=O)NCc2ccco2)C(=O)CCC(=O)Nc2nccs2)cc1,4,-0.8,x,x,x,0.4,-11,x,4,-6.2
COc1ccc(/C=C(/NC(=O)c2ccc(C)cc2)c2nc3ccccc3[nH]2)cc1OC,23,1.6,x,x,x,-0.2,x,12%,3,x
CC1CCCN(C(=O)c2cc(N3C(=O)C4C5CCC(C5)C4C3=O)ccc2Cl)C1 (centres undefined),-4,8.9,x,x,x,-0.3,-10,23%,6,x
Cc1ccc(C(=O)Nc2cccc(-c3ccc(N4CCOCC4)nn3)c2)cc1C,-2,0.2,1,10,-1.3,0.9,16,2%,1,2.0
Cc1nc2ccc(F)cc2cc1C(=O)NCc1ccco1,-6,0.1,x,x,x,0.1,-5,13%,-3,x
O=C1CCCC2=C1C(c1cn(-c3ccccc3)nc1-c1cccs1)c1c([nH]c(=O)[nH]c1=O)N2 (centres undefined),u,3.9,x,x,x,0.7,0,20%,-11,x
CCCN=C1NC(=O)C(CC(=O)NCCc2ccccc2)S1 (centres undefined),33,-2.5,12,7,-0.1,0.3,-13,-8%,3,1.7
O=C(NCc1ccco1)C1CCCN1S(=O)(=O)c1ccccc1C(F)(F)F (centres undefined),0,4.8,6,6,-3.8,0.2,2,17%,3,-7.3
O=C(Nc1ccc2c(c1)Cc1ccccc1-2)c1ccco1,7,1.5,x,x,x,-0.7,12,-4%,12,x
CC(C)(C)NCc1cccn1-c1sc2c(c1C#N)CCCC2,-12,0.4,x,x,x,0.4,-4,23%,-44,x
Cc1ccccc1OCC(=O)N/N=C1\CCOc2c(C)cccc21,4,1.3,13,13,-5.3,-1.1,7,17%,2,-2.3
O=C(COC(=O)C1CC(=O)N(c2ccccc2)C1)c1ccccc1 (centres undefined),-1,2.3,1,3,-1.8,0.2,-4,-1%,-14,2.6
CCOC(=O)C1(CCCc2ccccc2)CCN(C(=O)C2CCCO2)CC1 (centres undefined),-7,-2.4,-22,-28,-3.9,0.8,x,11%,5,0.9
O=C(CSCc1ccccc1)Nc1ccc(S(=O)(=O)Nc2ncccn2)cc1,-4,-6.0,7,0,-5.8,1.1,x,1%,-6,u
COc1ccc(CNC(=S)Nc2cc(C)ccc2C)cc1,-1,7.0,x,x,x,1.2,3,2%,-1,x
COc1cc(C(=O)NNC(=O)c2n[nH]c3ccccc23)cc(OC)c1OC,x,x,-3,-6,-1.8,0.7,-4,-22%,x,1.7
O=c1[nH]cnc2scc(C3COc4ccccc4O3)c12 (centres undefined),7,1.3,x,x,x,0.4,-3,18%,-4,x
COc1cc(NC(C)=O)ccc1NC(=O)c1cc2ccccc2o1,-2,1.9,7,14,5.5,-0.1,-4,-5%,-5,-0.3
CSc1ccccc1-n1nnnc1SCC(=O)NCc1cccs1,14,-0.8,x,x,x,0.3,-3,26%,6,x
Cc1nc(-c2ccc(Cl)cc2)sc1C(=O)NN,-3,0.7,5,4,1.0,-1.9,-1,2%,-21,-3.0
COc1cc2c(cc1OC)C(c1ccc(Cl)cc1)CC(=O)N2 (centres undefined),4,12,6,9,0.3,0.2,-3,x,-1,3.2
O=C(CCn1c(=O)oc2ccccc21)NCCC1=CCCCC1,-5,-1.7,0,3,0.1,1.5,-2,29%,4,0.6
COc1cccc(NC(=O)CSc2ncnc3c2oc2ccccc23)c1,3,-3.8,8,6,-4.1,-0.3,x,i,6,-1.1
CCCCC(CC)CN1C(=O)/C(=C/c2ccncc2)SC1=S (centres undefined),-7,-0.7,x,x,x,0.2,88*,1%,-5,x
O=C1c2ccccc2-c2ccc(C(=O)N3CCCCC3)cc21,6,0.0,-25*,-17*,-1.4*,0.9,-7,-8%,10,4.2
O=C(CSc1nnc(CNC(=O)c2cccs2)o1)Nc1ccc(Cl)cc1,3,1.5,-1,1,1.2,0.6,6,x,5,-3.6
CC(C)=CCCC1=CCC(/C(C)=N/NC(N)=O)CC1 (centres undefined),16,1.3,x,x,x,-0.7,-1,7%,-20,3.8
CCc1ccc(C(=O)CN2CCSC2=N)cc1,-26,1.9,-14,-10,-2.9,-3.9,-1,17%,9,18
CCn1c(CC(=O)Nc2ccc(F)cc2)nnc1SCC(=O)Nc1nncs1,-8,2.6,0,6,0.7,-0.3,-2,x,-15,-2.0
COc1ccc2[nH]c(C(=O)O)c(CCC(=O)O)c2c1,8,-1.0,x,x,x,-0.5,-2,-8%,-4,x
Cc1nn(C)c(=O)n1-c1ccccc1,0,1.2,5,11,-2.8,0.8,-11,-8%,-6,-0.9
CCC(c1nnnn1Cc1cccs1)N1CCN(c2nc3ccccc3s2)CC1 (centres undefined),3,u,x,x,x,0.0,3,21%,u,x
Cc1ccc(Nc2ncc3c(n2)CC(c2ccco2)CC3=O)c(C)c1 (centres undefined),2,8.0,x,x,x,-1.2,-8,18%,15,x
O=C(CN1CCN(C(=O)c2cccc(F)c2)CC1)Nc1ccccc1F,5,2.7,x,x,x,-0.2,-4,12%,-6,x
Cc1nn(C(=O)CCCC(=O)NCc2ccccc2)c2ccccc12,7,3.6,4,24,2.7,1.0,2,-2%,-6,-28
CCOc1cc(C2NC(=O)c3ccccc3O2)ccc1OC(C)C (centres undefined),-3,5.4,-5,-1,1.1,0.3,x,-7%,-5,0.5
CCN1CCN(CC(=O)Nc2cc(S(=O)(=O)N3CCCCC3)ccc2Cl)CC1,x,x,0,0,-1.0,0.9,-2,-1%,x,-0.1
CN(CC(=O)NC1CCCCC1)S(=O)(=O)c1cccc2nsnc12,-9,7.3,x,x,x,-0.1,-2,22%,-4,x
COc1cc(Cl)c(CN2CCCC(CO)(Cc3cccc(Cl)c3)C2)cc1OC (centres undefined),-2,-2.1,-18,-19,-0.2,0.5,x,x,36,2.0
CCOc1cccc(CNCCO)c1OCc1ccc(Cl)cc1Cl,-5,-6.5,-28,-47,-9.8,2.0,0,x,-15,6.7
CCN1C(=NCC(C)C)N[C@@H](CCc2ccccc2)[C@H](C(=O)NCC(C)C)[C@H]1C,-12,2.9,x,x,x,0.0,-15,x,9,x
CC(C)(C)c1ccc(/C=C2\Oc3c(ccc(O)c3CN3CCN(CCO)CC3)C2=O)cc1,6,u,0,-2,4.6,0.4,4,2%,16,4.0
CN(C1CC(C)(C)N(O)C(C)(C)C1)S(=O)(=O)CC12CCC(CC1=O)C2(C)C (centres undefined),-2,x,11,13,2.0,0.1,-1,15%,-13,-0.8
CCN(CC)S(=O)(=O)c1cccc(C(=O)N/N=C2\CC(=O)CC(C)(C)C2)c1,-6,-4.2,31,12,31,-0.9,-3,-6%,-4,0.9
CCOC(=O)c1cnc2c(ccc3ccccc32)c1NCCN(C)C,-4,0.6,-29,-24,-0.2,-0.3,1,x,35,1.6
COc1ccc(/C=N/NC(=O)CSc2ccccn2)cc1OC,-16,4.2,7,1,9.5,0.2,0,-8%,0,-5.6
Nc1nonc1-n1nnc(C(=O)N/N=C/c2cccc(Cl)c2Cl)c1CN1CCCC1,0,u,5,12,0.5,1.0,4,x,9,-2.0
C=CCNS(=O)(=O)c1sccc1/C=N/O,-2,3.8,x,x,x,0.4,-6,4%,-16,x
CC(C)(CN1CCN(Cc2ccccc2)CC1)NS(=O)(=O)c1ccccc1,-23,-0.1,3,2,-12,-0.6,4,-3%,37,-0.1
Cc1ccc(-c2cc(C(=O)NCC3CCCO3)c3ccccc3n2)cc1C (centres undefined),4,-1.7,13,3,-0.2,-0.9,5,5%,7,2.0
COc1ccccc1N1CCN(C(=O)c2oc3c(c2C)C(=O)CC(C)(C)C3)CC1,-3,0.2,6,10,0.7,0.1,-2,-11%,7,-0.6
O=C(CSc1ncn[nH]1)Nc1ccc(S(=O)(=O)N2CCCC2)cc1,2,22,x,x,x,0.2,-3,4%,-2,x
COc1ccc(OCc2cc(C(=O)N(C)CC3CCCCO3)no2)c(Cl)c1 (centres undefined),-8,4.8,-14,-26,-1.5,-0.4,x,4%,2,-2.4
CC(C(=O)Nc1ccc2c(c1)OCCO2)c1ccc([N+](=O)[O-])cc1 (centres undefined),-31,0.0,3,2,0.7,1.0,-3,-3%,-4,2.1
CCOC(=O)c1c(NC(=O)CNCC(O)CO)sc(C)c1C (centres undefined),6,5.2,x,x,x,-0.3,-2,-5%,11,x
COc1ccc(OC)c(NC(=O)CN(c2ccc(C)cc2)S(=O)(=O)c2c(C)noc2C)c1,-35,4.0,x,x,x,-0.1,8,19%,16,x
Cc1cccc(C(=O)Nc2nnc(SCC(=O)NCc3ccco3)s2)c1,1,0.1,6,9,-5.3,-0.6,1,0%,-17,-2.2
CCC1(CC)NC(=O)N(CC(=O)OCC(=O)Nc2ccc(C(F)(F)F)cc2)C1=O,-30,6.4,x,x,x,1.1,-4,11%,-2,x
C=C(C)CNC(=S)NNC(=O)CCn1c2cc(Cl)ccc2c2ccc(Cl)cc21,27,-0.7,x,x,x,0.2,-3,x,9,x
CN1C(=O)c2ccc(NC(=O)C3CCCCC3)cc2C1=O,-3,-0.9,10,4,2.7,1.2,-3,-8%,13,-18
O=C(O/N=C\c1ccc(N2CCCCC2)c([N+](=O)[O-])c1)c1c(F)cccc1F,-10,0.1,x,x,x,0.4,-3,65%,8,x

# Entries listed so far containing a tert-butyl group, in the order listed:
SMILES,Calb FLC,RanGTP-Imp inh,Ecoli rRNA inh,Ecoli rRNA inh OD600,Ecoli rRNA inh RFP,Bfl-1 A1 inh,Beta apoptosis,Vif A3G,T cruzi inh,MLL AF4-AF9 inh
CC(C)(C)NCc1cccn1-c1sc2c(c1C#N)CCCC2,-12,0.4,x,x,x,0.4,-4,23%,-44,x
CC(C)(C)c1ccc(/C=C2\Oc3c(ccc(O)c3CN3CCN(CCO)CC3)C2=O)cc1,6,u,0,-2,4.6,0.4,4,2%,16,4.0

# Only part of the results is shown (hit frequency here may not be typical).
